Menin MLL FP FL = qHTS Assay for Inhibitors Targeting the Menin-MLL Interaction in MLL Related Leukemias: Competition With Fluorescein Labeled MLL-derived Peptide. Fluorescence polarization, fluorescein-MLL peptide displacement from menin. AID 1766, 2009. FP activity change, % at 61.4 µM. 290,000 tested, under 10 active; inconclusive = falling polarisation curve, or a change in total fluorescence; inactive = total fluorescence flat and polarisation flat or rising; no compound was filed as active; the % refers to the polarisation; negative = inhibition;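 note: % of control where 0% means no effect; inhibitors lower the polarisation; unlabelled MLL peptide was the positive control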
gsp antagonist = qHTS for Antagonists of gsp, the Etiologic Mutation Responsible for Fibrous Dysplasia/McCune-Albright Syndrome: qHTS; gsp-mutant cells, cAMP HTRF, 30 min; control for the full effect not named in the record; Potency, µM (highest dose often 76.9 µM), without a hit: at the top dose activity change, negative = inhibition, actives largely listed as inhibitors; 340,000 tested, 0.4% active; active = falling curve of any shape with a large fitted effect; inconclusive = falling curve, mostly with a smaller effect; inactive = flat or rising curve; cell line not stated here;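 note: intracellular cAMP measured with PDE inhibitor Ro 20-1724 present during compound exposure; potency is the fitted concentration of half-maximal effect; % is set by controls: 0 for no effect and ±100 for the full control effect; nearly all actives have a fitted effect of over 65% in size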
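Cells, 2000/well, grown 16–24 h in DMEM 10% FBS with 0.5 mg/ml G418, then compounds plus […] (300 uM addition stock), 30 min at 37C. cAMP read by HTRF (cAMP-d2 and anti-cAMP antibody-K in lysis buffer) after 30 min RT.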
TRPV1 potentiator = HTS Assay for Compounds that Act as Potentiators of the Vanilloid Receptor 1. potentiation, % at 8.33 µM. 320,000 tested, 0.02% active. TRPV1-expressing cells, Fluo-8 calcium influx, capsaicin EC20 potentiation; host cell line not named in the record; control for the full effect not named in the record. AID 540277, 2011. Transient receptor potential cation channel subfamily V member 1 (Homo sapiens), Q8NER1; active means potentiation above 80%; inconclusive means 30% to 80%; inactive means below 30%; note: 0% is about no effect
Target sequence (Q8NER1 whole entry, looked up): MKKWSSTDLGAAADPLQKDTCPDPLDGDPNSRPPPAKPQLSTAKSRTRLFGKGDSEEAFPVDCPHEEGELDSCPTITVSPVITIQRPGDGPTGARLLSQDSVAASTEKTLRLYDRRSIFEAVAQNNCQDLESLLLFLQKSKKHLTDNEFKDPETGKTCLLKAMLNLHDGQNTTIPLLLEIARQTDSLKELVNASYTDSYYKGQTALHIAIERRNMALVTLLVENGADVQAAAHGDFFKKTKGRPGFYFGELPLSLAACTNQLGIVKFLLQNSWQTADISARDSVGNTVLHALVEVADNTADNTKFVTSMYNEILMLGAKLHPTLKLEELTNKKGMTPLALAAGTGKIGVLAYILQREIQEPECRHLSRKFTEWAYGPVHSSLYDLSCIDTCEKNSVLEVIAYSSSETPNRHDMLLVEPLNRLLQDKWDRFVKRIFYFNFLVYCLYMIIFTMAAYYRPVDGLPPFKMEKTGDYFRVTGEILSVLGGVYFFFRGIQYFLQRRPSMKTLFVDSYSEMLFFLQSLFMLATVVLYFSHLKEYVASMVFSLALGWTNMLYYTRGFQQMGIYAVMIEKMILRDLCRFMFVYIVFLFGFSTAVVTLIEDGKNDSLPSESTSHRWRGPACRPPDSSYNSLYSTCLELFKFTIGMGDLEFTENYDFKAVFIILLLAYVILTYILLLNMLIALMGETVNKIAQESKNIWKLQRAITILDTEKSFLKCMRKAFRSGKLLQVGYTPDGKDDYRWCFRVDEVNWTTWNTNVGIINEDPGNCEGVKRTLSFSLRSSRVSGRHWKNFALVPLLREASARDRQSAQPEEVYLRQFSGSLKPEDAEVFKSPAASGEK
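TRPV1-expressing cells were cultured overnight at 35.5C and loaded with Fluo-8 calcium dye for 40 to 90 min at room temperature. After a 10 s baseline, compound was added and calcium influx was read kinetically for 3 min (ex 480/em 520 nm).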
ClpP mod = qHTS Assay for Activators of ClpP | ATP-dependent Clp protease proteolytic subunit (Bacillus subtilis (strain 168)), P80244 | purified B. subtilis ClpP, FRET peptide cleavage, 20 min | Potency, µM (top dose mostly 57.5 µM), for the others: top-dose activity change, negative = active | 340,000 tested, 1.9% active | AID 651965, 2013; active = well fitted falling curve with a large enough effect; inconclusive = small, poorly fitted or top-dose-only effect; inactive = no such curve, though single readings can be large or run the other way; note: potency is the fitted concentration of half-maximal effect; the source files actives as falling curves though it sought activators and does not explain the sign; nearly all actives have a fitted effect of over 65% in size; many hits overshoot -100%
Target sequence (P80244 whole entry, looked up): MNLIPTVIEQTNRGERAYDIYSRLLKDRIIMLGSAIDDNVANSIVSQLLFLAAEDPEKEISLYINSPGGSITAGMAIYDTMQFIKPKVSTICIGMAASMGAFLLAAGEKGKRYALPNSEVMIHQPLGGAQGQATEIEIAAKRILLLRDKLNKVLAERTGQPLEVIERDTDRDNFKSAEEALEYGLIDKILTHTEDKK
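ClpP 10 microg/mL final, pH 8 Tris/KCl buffer with BSA, glycerol, Tween-20; compound pinned in; FRET-FV substrate; RT 20 min; Ex320/Em430; ΔFRET vs ADEP 5.8 microM, DMSO, no enzyme.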
D2 PAM = Beta-Arrestin HTS for Positive Allosteric Modulators of the Human D2 Dopamine Receptor: Potentiators. DiscoveRx D2 beta-arrestin cells, luminescence, 90 min; 100% = 57 uM dopamine signal. 360,000 tested, 0.23% active. AID 624464, 2012. potentiation, % (no concentration beside the values). D(2) dopamine receptor (Homo sapiens), P14416; active = potentiation of 50% or more; inconclusive = 30% to 50%; inactive = 30% or less;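 note: compound concentration not given in the record; tested on top of an EC20 dose of dopamine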
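D2 cells co-treated with compound plus 50 nM dopamine (EC20) for 90 min at 37 deg C to detect potentiation. Beta-arrestin recruitment was read as enzyme-fragment luminescence after 1 h at ambient temperature. Full response was set by 57 uM dopamine.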
gsp agonist = qHTS for Agonist of gsp, the Etiologic Mutation Responsible for Fibrous Dysplasia/McCune-Albright Syndrome: qHTS; gsp mutant cells, cAMP HTRF, 30 min; control for the full effect not named in the record; Potency, µM (doses to about 76.9 µM), for inactives: top-dose activation (cAMP increase), hits mostly activators; 340,000 tested, 0.13% active; AID 624287, 2012; active = well fitted activation curve with a large enough effect; inconclusive = small, poorly fitted or top-dose-only effect, or another doubt; inactive = no such curve, though single readings can be large or run the other way; cell line not stated here;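 note: phosphodiesterase inhibitor Ro 20-1724 added with compounds to block cAMP breakdown; potency is the fitted concentration of half-maximal effect; nearly all actives have a fitted effect of over 60% in size; about a fifth of the inactives were tested at one dose only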
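Cells in DMEM/10% FBS with G418 were pretreated with compounds in DMSO plus […] (300 uM stock) for 30 min at 37C. cAMP was measured by HTRF (cAMP-d2 plus anti-cAMP antibody-K) after 30 min at room temperature.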
Sfp PPTase inh = qHTS Assay for Inhibitors of Bacillus subtilis Sfp phosphopantetheinyl transferase (PPTase). 4'-phosphopantetheinyl transferase ffp (Bacillus subtilis), Q9F4F7. Biochemical Sfp PPTase activity, qHTS. Potency, µM, inactives show max response, negative = inhibition, actives largely listed as inhibitors. 310,000 tested, 3.5% active. AID 1490, 2009; active = well fitted inhibition curve with a large enough effect; inconclusive = small, poorly fitted or top-dose-only effect, or another doubt; inactive = no such curve, though single readings can be large or run the other way;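 note: the enzyme is Sfp with the accession as filed and its product quenches rhodamine fluorescence; potency is the fitted concentration of half-maximal effect; 0% = enzyme reaction without inhibitor and -100% = no enzyme wells; top concentration of the series not given in the record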
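Compounds were incubated with enzyme (final 15 nM) for 15 min at room temperature before substrate addition started the reaction. Fluorescence at 525 nm excitation, 598 nm emission was recorded immediately and after 30 minutes.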
* = called active by the depositor; ? = inconclusive; / = not tested or not shown; & = joins results of further samples; [ ] = dose if it differs, or a comment. No enrichment for hits. Share with any hit: about 5.1%.

smiles	ClpP mod	Sfp PPTase inh	Menin MLL FP FL	gsp antagonist	gsp agonist	D2 PAM	TRPV1 potentiator
Cc1ccn2cc(CCNC(=O)C3CC=CCC3C(=O)O)nc2c1 (stereo not given)	/	-3%	1.9	15%	19%[15.4 µM]	-10	6
CCc1ccc(C2=NNC(=Nc3c(C)n(C)n(-c4ccccc4)c3=O)SC2)cc1	/	-21%	-2.4	/	8%[15.4 µM]	-6	4
COc1ccc(C)cc1NS(=O)(=O)c1cn(C)c(=O)n(C)c1=O	-0.4%	-13%	2.7	3%	4%	0	/
CCOC(=O)c1cnn(-c2cc(C)nc3c(-c4ccccc4)c(C)nn23)c1N	-2.2%	13%	-1.6	10%	12%	-20	28
COc1ccc(CNC(=O)C(=O)NC2CCC(C)CC2)cc1 (stereo not given)	-2.6%	3%	-0.4	8%	-6%	-4	-16
N/C(=N\OC(=O)CCCC(=O)O)c1ncc(C(F)(F)F)cc1Cl	/	8%	4.9	8%	-25%[15.4 µM]	9	3
CCCCOc1ccccc1NC(=O)CSc1nnnn1C(C)(C)C	-1.2%	12%	-0.9	0%	-24%	-15	-17
CC(=O)C1=C(O)C(=O)N(Cc2ccccc2)C1c1cccc([N+](=O)[O-])c1 (stereo not given)	-0.9%	8%	-0.4	-6%	-13%	-26	19
CCCC(=O)Nc1ccc(N2CCN(C(=O)c3cccs3)CC2)cc1	0.3%	8%	1.0	-6%	15%	5	-5
CCC1CN(C)C2Cc3c([nH]c4ccccc34)C(=O)CC1C2C(=O)OC (stereo not given)	-27%	0%	0.8	-2%	-23%	0	-3
COc1ccc(S(=O)(=O)Nc2nc3c(s2)CCCC3)cc1	/	-1%	-5.6	-3%	-2%	-7	3
COC(=O)CCCNC(=O)c1ccc2oc(CCCc3ccccc3)nc2c1	-12%	10%	-1.3	3%	0%[15.4 µM]	-2	1
COc1ccc(C2C(C#N)=C(N)Oc3c2oc(CO)cc3=O)c(OC)c1OC (stereo not given)	1.0%	-4%	3.2	3%	6%	-6	-3
NCCc1nnc(SCC(=O)Nc2ccc(Br)cc2)o1	1.1%	9%	-5.0	14%	51%	-14	-5
CC(C)c1ccc(C(C)NCCS(=O)(=O)c2ccc(Cl)cc2)cc1 (stereo not given)	-1.0%	11%	/	-13%	21%[15.4 µM]	-10	-9
COc1cc(NC(=O)c2cccc([N+](=O)[O-])c2C)ccc1NC(=O)c1ccco1	-1.9%	-15%	6.3	-13%	-8%	-18	7
CC1(c2ccc(OCC#N)cc2)C=C(c2ccc(OCC#N)cc2)n2nc(C(F)(F)F)nc2N1 (stereo not given)	-5.7%	-1%	4.8	-21%	-25%	-5	7
COC(=O)CSc1nc(C)cc(N2CCOCC2)n1	-0.9%	10%	2.6	0%	-15%	-4	7
O=S(=O)(Nc1cccc2ccccc12)c1ccccc1	/	10%	-0.7	10%	-11%[15.4 µM]	21	6&4
Cc1ccc(S(=O)(=O)N2CCCCC2)cc1C(=O)NCC1CCCO1 (stereo not given)	-2.4%	16%	/	6%	28%	-4	-8
CNC(=S)N1N=C(c2ccc(Br)cc2)CC1c1ccc(N(C)C)cc1 (stereo not given)	/	26%	?	-8%	10%	-4	-5
Cc1c(NS(=O)(=O)c2cc(C(=O)OCC(=O)N3CCC(C)CC3)ccc2Cl)c(=O)n(-c2ccccc2)n1C	/	17%	-8.7	-11%	-4%	-2	4
CN1c2ccsc2C(O)=C(C(=S)Nc2ccc(F)c(Cl)c2)S1(=O)=O	3.6%	50µM*	6.3	35µM*	-23%	27	4
COCCCn1c(=N)c(C(=O)NCc2ccc3c(c2)OCO3)cc2c(=O)n3cccc(C)c3nc21	-5.1%	/	/	?	-19%	-1	/
O=C(O)c1cccc(-n2cccc2/C=C2\NC(=O)N(Cc3ccc(F)cc3)C2=O)c1	/	-25%	12	?	16%[15.4 µM]	2	6
COc1ccc(Nc2cc(C)nc3ccc(OC)cc23)cc1	/	-14%	-0.8	2%	-18%	-20	-1
Cn1cc(Cl)c(C(=O)OCC(=O)Nc2cccc(Cl)c2)n1	/	16%	-1.8	2%	-11%	-6	-4
Cc1ccc(C)c(NC(=O)c2ccc3nccnc3c2)c1	/	20%	/	6%	13%	-3	4
COc1cc(OC)c2c(-c3ccccc3)cc(=O)oc2c1	-7.9%	6%	-0.9	1%	/	-32	-6
COc1ccc(NC(=O)CSc2nnc(C3CC3)n2C)cc1S(=O)(=O)N1CCOCC1	-0.4%	/	/	16%	-1%	1	7
O=C(COC(=O)CCc1nc2ccccc2c(=O)[nH]1)NCc1ccc(F)cc1	/	14%	0.5	-4%	4%[15.4 µM]	-8	-12
COc1ccc(CC(=O)N2CCN=C2SCc2cccc([N+](=O)[O-])c2)cc1	-7.2%	-3%	-1.7	-1%	-26%[15.4 µM]	-12	20
CC(=O)c1cccc(CN2CCN(Cc3ccc(F)cc3)C(CCO)C2)c1 (stereo not given)	0.4%	-2%	-2.0	5%	-63%[inhibitor]	-12	-7
COc1ccccc1CC(=O)Nc1ccc(O)cc1C(=O)O	18µM*	16%	-0.3	8%	?	-8	5
NS(=O)(=O)c1ccc(CNC(=O)c2ccccn2)cc1	2.2%	-13%	-1.1	12%	-42%[inhibitor]	-3	-2
COc1ccccc1NC(=O)Nc1c(C)n(C)n(-c2ccccc2)c1=O	0.8%	-4%	-2.1	8%	?	-5	-2
COc1ccccc1NC(=O)COC(=O)CCc1ccc(S(=O)(=O)N2CCOCC2)cc1	1.3%	/	/	-11%	-31%[inhibitor]	-3	-5
CCC(C)[C@H](NC(=O)N1CCn2c1nc1ccccc12)C(=O)NCc1ccccc1 (stereo not given in full)	0.9%	1%	/	-17%	0%	-5	4
O=C(CSc1ccccc1C(=O)O)NC1CCCCCCC1	0.2%	23%	1.9	-12%	1%	-9	1
Cc1[nH]c2ccccc2c1/C=N/NC(=O)c1ccc(N)cc1	-1.0%	3%	-0.7	-13%	-4%	-10	-10
C/C=C/c1ccc(OCCCN2C(=O)NC(C)(C)C2=O)c(OC)c1	-4.9%	8%	-1.8	-1%	-59%	-12	-23
N=c1n(CCN2CCCCC2)c2ccccc2n1CC(=O)c1ccc(Cl)c(Cl)c1	/	35µM*	?	-6%	11%[15.4 µM]	-23	10
Cc1noc(C)c1C(=O)OCC(=O)N1CCc2ccccc21	0.9%	/	/	13%	-27%	-7	/
COc1ccc(C)cc1NC(=O)CO/N=C(\N)CC(=O)Nc1ccccc1OC	3.9%	/	/	-12%	2%	-13	4
Cc1ccc([C@H]2N[C@]3(CCCN(Cc4ccccc4)C3=O)[C@H]3C(=O)N(Cc4ccccc4)C(=O)[C@@H]23)cc1	1.4%	/	/	/	-55%[inhibitor]	-2	/
COc1cc2c(cc1OC)C1(Nc3c-2c(Cc2ccccc2)nn3-c2ccccc2)C(=O)Nc2ccccc21 (stereo not given)	-0.8%	3%	12	-7%	?	-2	20
Cc1onc(-c2ccccc2Cl)c1C(=O)NCc1ccc(F)cc1	/	-3%	4.9	0%	?	-3	-9
OCCC1CN(Cc2cccn2-c2cccnc2)CCN1Cc1ccc(F)cc1 (stereo not given)	-0.3%	7%	-7.2	?	-68%[inhibitor]	-12	-2
CN(C)CCCC1(O)c2ccccc2CCc2ccccc21	/	16%	-1.0	-12%	6%[15.4 µM]	-24	16
COc1ccc(-c2csc(N(CCc3ccc(OC)c(OC)c3)C(=O)COc3ccccc3)n2)cc1	-0.9%	4%	0.4	-10%	16%	-3	-5

New compounds follow:
smiles	ClpP mod	Sfp PPTase inh	Menin MLL FP FL	gsp antagonist	gsp agonist	D2 PAM	TRPV1 potentiator
CC(C)C(c1nnnn1Cc1ccco1)N1CCC(C(N)=O)CC1 (stereo not given)	-1.7%	7%	2.7	-9%	-4%	19	17
Cc1c(NC(=O)Oc2ccccc2)sc(=S)n1C	-2.3%	56µM*	-0.9	-1%	-43%[inhibitor]	-9	14
CN(C)CCNC(=O)Cn1ccc2cc(S(=O)(=O)N3CCCCC3)ccc21	-7.7%	4%	-3.2	11%	5%	-14	3
CC(Oc1ccc(C(C)(C)C)cc1)c1ccnc2nc(/N=C/N(C)C)nn12 (stereo not given)	28µM*	?	-0.1	-3%	1%	-4	9
O=C(Cn1c(SCC(=O)N2CCCc3ccccc32)nc2ccccc21)N1CCCC1	0.8%	15%	2.0	0%	-20%	-13	6
O=C(NCc1ccc2c(c1)OCO2)c1cccc(F)c1	-1.6%	-3%	4.7	6%	-3%	-19	-7

Screening data from PubChem.
